Mtb hypoxia rep: PubChem AID 1159583; 0.1% of 300,000 active; fluorescence inhibition, % (test concentration not listed); M. tuberculosis hypoxia-regulated fluorescent reporter, fluorescence;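 active = 35 to 45% if threefold the growth effect, above 45% if 1.5-fold the growth effect; inactive = the rest, general growth blockers included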;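 also: wells of about 50 µL received 100 nL stock; 0% = vehicle wells and 100% = reference inhibitor wells; whole bacteria with a GFP reporter of the hypoxia response; strong numbers were not always called active; many hits fall short of the cut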
PrP 5UTR inh: inhibition of PrP 5' UTR reporter expression. 0.35% of 340,000 active. cell-based PrP 5' UTR mRNA reporter, plate reader. inhibition, % (concentration not given with the values);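 active = every replicate at 50% or more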;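 also: 0 = median of the neutral control wells; tested in H4 reporter cells; numbers are from one replicate; inactives centre near -14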
Autofluor counter: flagged as autofluorescent in microsphere protease counterscreen | compound autofluorescence counterscreen, microsphere flow cytometry; active compounds read high | 3.1% of 360,000 active | fluorescence intensity (concentration not given with the values);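 active = at least 3 SD above the mean of all compounds, about 16000 in these data; inconclusive = too few beads counted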;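 also: 100 nL of 1 mM stock went into each well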
Sa ugtP lethal: growth inhibition of ugtP-null S. aureus, primary screen, RN4220 ugtP deletion, OD600 | 16 h; some inactives read as strong as hits | growth inhibition, % (concentration not given with the values) | 0.54% of 330,000 active | AID 1259309, 2017;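 active = z-score under -3 and OD600 up to 0.15 on both plates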;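 also: plate controls were untreated wells for no effect and antibiotic for full effect; wells of about 80 µL received 100 nL stock; the first replicate is given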
BJeLR viability: MLPCN primary cell-based screen for lethality selective to Ras in HRASV12 cells | BJeLR (HRASV12) viability, CellTiter-Glo ATP luminescence, 48 h; reference of the scale not given here | inhibition, % (concentration not given with the values) | 0.17% of 300,000 active | AID 1554, 2009;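 active = replicate mean above 50%; inconclusive = above 50% but judged a plate artefact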;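 also: 50 nL library stock added to about 25 µL; numbers are from one replicate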
Sa RN4220 lethal: growth inhibition of S. aureus RN4220, primary screen, OD600; 16 h; inhibition, % (no concentration beside the values); 0.33% of 330,000 active;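 active = z-score of -3 or lower and OD600 up to 0.18 on both plates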;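 also: plate controls were untreated cells for no effect and reference antibiotic for full effect; stock transfer was 100 nL into about 80 µL; one replicate is shown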
Mtb hypoxia rep growth: recorded beside Mtb hypoxia rep, whose call it bears; growth inhibition, %; measured here: M. tuberculosis growth (absorbance);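 0% = vehicle and 100% = reference antibiotic; read after six days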
* marks the source's active call; other numbers are inactive results; u = inconclusive; x = not tested or not shown.

SMILES	Mtb hypoxia rep	Mtb hypoxia rep growth	PrP 5UTR inh	Autofluor counter	Sa ugtP lethal	BJeLR viability	Sa RN4220 lethal
CCCOc1ccc(/C=C/C(=O)Nc2ccc([N+](=O)[O-])cc2)cc1	-3	9	-6	3079	-12	14	10
CCOC(=O)CC(C)=NNC(=O)C1CC1(c1ccccc1)c1ccccc1 (stereo not drawn)	0	-2	x	x	32	x	0.7
CCN(C(=O)CSc1nccc(=O)[nH]1)c1cccc2ccccc12	6	3	-22	3932	-5	x	3.6
COc1ccc(C)cc1NC(=O)c1ccc(S(=O)(=O)N2CCCCC2)cc1	11	10	-7	5983	-1	-6	0.5
CCOc1cc2c(cc1OCC)-n1cccc1C(c1cccc(F)c1)NC2 (stereo not drawn)	9	6	-13	4259	4	-12	3.7
Cc1csc2nc(CNC(=O)c3ccco3)cn12	17	7	-42	3346	1	1	-8.0
COc1ccc(-c2[nH]ncc2CN2CCCO2)c(F)c1	-6	-2	-6	3955	-1	-5	1.9
O=c1[nH]c2ccc([N+](=O)[O-])cc2[nH]1	14	10	-9	3029	5	x	2.0
NS(=O)(=O)c1cccc(NC(=O)c2cncc(Br)c2)c1	-2	8	-19	5316	4	1	1.9
O=C(c1ccc(CSCc2ccccc2F)o1)N1CCN(c2ccc(N3CCOCC3)nn2)CC1	-8	3	-2	4328	1	5	0.9
Cc1ccc(Nc2nnc(SCC(O)=C(C#N)c3nc4ccccc4[nH]3)s2)c(C)c1	0	0	-6	3699	-14	x	-0.1
CCCN(CC(=O)Nc1ccccc1C)C(=O)Cc1n[nH]c(=O)c2ccccc12	13	3	x	x	1	x	1.9
COc1ccc(C(=O)NCCCc2ccccc2)cc1	19	18	x	5434	4	8	2.0
COc1ccc(Br)cc1C(=O)Nc1ccc(C(=O)NCC(C)C)cc1	3	12	-18	4012	-3	-3	-4.3
COc1ccc(C(=O)NCCn2cc(SCC(=O)Nc3cc(C)on3)c3ccccc32)cc1OC	x	x	-3	3775	2	-6	0.0
COCC(=O)Nc1ccc(N2CCOCC2)c(S(=O)(=O)Nc2ccc(OC)cc2)c1	17	5	-36	3811	1	x	3.3
COCCCNc1nc2ccccc2nc1NS(=O)(=O)c1ccc(OC)cc1	5	7	-6	3375	0	7	2.8
CCC(=O)Nc1cc(=O)[nH]c2nc(-c3ccc(Cl)cc3)nn12	x	x	-10	3642	11	7	5.7
Cc1ccc(-c2sc(-c3ccccc3)nc2CC(=O)Nc2ccccc2F)cc1	x	x	-20	2648	-2	4	-1.5
COCCNC(=O)[C@H]1N2C(=O)c3c(ccc(OC)c3OC)C2SC1(C)C (stereo partly drawn)	4	5	-22	3690	12	7	0.0

Part of the list above in order of count of non-hydrogen atoms, rising.
SMILES	Mtb hypoxia rep	Mtb hypoxia rep growth	PrP 5UTR inh	Autofluor counter	Sa ugtP lethal	BJeLR viability	Sa RN4220 lethal
O=c1[nH]c2ccc([N+](=O)[O-])cc2[nH]1	14	10	-9	3029	5	x	2.0
Cc1csc2nc(CNC(=O)c3ccco3)cn12	17	7	-42	3346	1	1	-8.0
COc1ccc(C(=O)NCCCc2ccccc2)cc1	19	18	x	5434	4	8	2.0
CCC(=O)Nc1cc(=O)[nH]c2nc(-c3ccc(Cl)cc3)nn12	x	x	-10	3642	11	7	5.7
CCN(C(=O)CSc1nccc(=O)[nH]1)c1cccc2ccccc12	6	3	-22	3932	-5	x	3.6
COc1ccc(Br)cc1C(=O)Nc1ccc(C(=O)NCC(C)C)cc1	3	12	-18	4012	-3	-3	-4.3
COCCNC(=O)[C@H]1N2C(=O)c3c(ccc(OC)c3OC)C2SC1(C)C (stereo partly drawn)	4	5	-22	3690	12	7	0.0
CCOC(=O)CC(C)=NNC(=O)C1CC1(c1ccccc1)c1ccccc1 (stereo not drawn)	0	-2	x	x	32	x	0.7
COCCCNc1nc2ccccc2nc1NS(=O)(=O)c1ccc(OC)cc1	5	7	-6	3375	0	7	2.8
CCCN(CC(=O)Nc1ccccc1C)C(=O)Cc1n[nH]c(=O)c2ccccc12	13	3	x	x	1	x	1.9
Cc1ccc(Nc2nnc(SCC(O)=C(C#N)c3nc4ccccc4[nH]3)s2)c(C)c1	0	0	-6	3699	-14	x	-0.1
COc1ccc(C(=O)NCCn2cc(SCC(=O)Nc3cc(C)on3)c3ccccc32)cc1OC	x	x	-3	3775	2	-6	0.0

Next part:
SMILES	Mtb hypoxia rep	Mtb hypoxia rep growth	PrP 5UTR inh	Autofluor counter	Sa ugtP lethal	BJeLR viability	Sa RN4220 lethal
COc1cc2cc(CCCOC(=O)CCC(=O)O)oc(=O)c2cc1OC	6	8	-3	2885	7	x	2.4
COc1ccc2oc(=O)c(C(=O)Nc3cccc(C(C)=O)c3)cc2c1	4	-6	-33	4061	-13	-7	4.5
O=C(Cc1ncc(C(F)(F)F)cc1Cl)N1CCN(c2ccccn2)CC1	7	1	-2	16086	0	1	2.4
COc1ccccc1NC(=O)Cn1cnc2c(oc3nc4c(cc32)CCCC4)c1=O	-9	-5	-22	5120	10	-8	4.9
COC(=O)C1=C(c2ccccc2)CC2CCC1N2C(=O)N1CCOCC1 (stereo not drawn)	3	14	x	x	-14	x	0.0
CCCCCC(=O)Nc1cccc2ccccc12	1	3	-21	2422	0	-7	12
CCc1ccccc1Nc1nc(N)nc(CSCC(=O)Nc2ccc(C)c(C)c2)n1	4	-19	-11	2572	-6	4	7.0
COc1cccc(C2CC(c3cccc(OC)c3)n3nc(N)nc3N2)c1 (stereo not drawn)	x	x	-17	4337	8	4	4.2
OCCC1CN(Cc2cccc3nonc23)CCN1Cc1ccsc1 (stereo not drawn)	11	10	-17	4562	3	0	-0.6
CC(=O)Nc1ccc(NS(=O)(=O)c2cc([N+](=O)[O-])ccc2C)cc1	2	13	-8	4515	7	-18	2.5
Cc1ccccc1NC(=O)c1ccccc1-c1ccccc1	12	10	-29	3210	2	6	6.7
CCC(C)C(CNC)NCC(Cc1ccc(O)cc1)NCC(C)(C)C (stereo not drawn)	5	5	x	x	-3	x	4.5
NCCCCC1CNC(=O)C(=O)N1CCc1cccc(F)c1 (stereo not drawn)	15	4	x	x	1	x	7.9
COc1ccc(C(=O)Cn2c(C(=O)/C=C/c3ccccc3)nc3ccccc32)cc1	5	4	-8	2926	23	-8	5.3
CSc1nnc(CNC(=O)c2ccccc2)n1-c1ccc(F)cc1	2	5	-18	5833	-2	x	6.7
CN(C)CCCN1CC(C(=O)O)CC1=O (stereo not drawn)	4	7	-11	9818	9	-6	3.7
Cc1ccc(C2=NN(C(=O)c3cccs3)C(c3ccccc3O)C2)cc1 (stereo not drawn)	-4	5	-21	4091	17	4	-3.5
O=C(Cn1ccc(C(F)(F)F)n1)Nc1cccc(S(=O)(=O)N2CCCCC2)c1	11	7	-3	4254	-3	-2	3.3
CCc1ccccc1-n1c(SCC(=O)c2c(N)n(C3CC3)c(=O)[nH]c2=O)nnc1N1CCOCC1	10	2	-30	u	5	x	3.2
CCOC(=O)N1CCN(c2nc(C(F)(F)F)nc3c(C)cc(C)cc23)CC1	1	6	-13	3444	11	-17	4.6
CCOc1ccc2nnc(-c3ccc(Br)cc3)n2n1	-80	-17	2	9909	-5	8	7.5
CC1=CS(=O)(=O)CC1Sc1nc(C)n[nH]1 (stereo not drawn)	0	-2	-25	2116	-6	-5	2.3
COc1ccc(-n2nc(C(=O)NCC(=O)NC3CCCCC3)c3ccccc3c2=O)cc1	16	5	-18	3036	12	-2	1.5
CC(=NNC(=O)c1ccncc1)c1ccc(NC(=O)c2ccccc2)cc1	x	x	x	x	12	x	0.9
O=C(N/N=C/c1ccccc1F)c1ccccc1OCc1ccccc1	x	x	-30	3988	x	0	x
O=C(COc1cccc(NC(=O)c2ccccc2)c1)c1ccccc1	2	-9	4	1981	-2	-2	1.7
CC1CCc2c(sc(NS(=O)(=O)c3ccccc3)c2C(=O)OC(C)C)C1 (stereo not drawn)	6	8	-9	2766	-21	5	-1.2
O=C(NNC(=O)C1CC1c1ccccc1)c1ccccc1F (stereo not drawn)	14	-1	-18	4038	1	-5	1.2
CCCCc1cc(=O)oc2cc(OC(C)C(=O)NCc3ccccn3)c(Cl)cc12 (stereo not drawn)	6	0	-10	5576	7	0	5.8
Oc1cc(CNCc2ccccc2)c(O)cc1CNCc1ccccc1	0	8	-13	4190	-5	x	0.7
COc1cc([C@@H]2[C@H]3CNCC=C3C(C#N)=C(N)C2(C#N)C#N)ccc1OC(C)C	x	x	-11	3681	-4	0	-0.8
CCN(CC)S(=O)(=O)c1ccc(N2CCCC2)c(NS(=O)(=O)c2ccc([N+](=O)[O-])cc2)c1	5	7	-18	2313	10	5	5.3
CNC(=O)CN(c1cccc2ccccc12)S(C)(=O)=O	4	12	-15	3185	-8	31	-5.4
COc1cccc(NC(=O)Cc2csc(NC(=O)Nc3ccccc3OC)n2)c1	11	0	-8	5733	-12	-3	-9.2
Cc1cccn2c(=O)nc(SCC(=O)N3CCN(c4ccccc4)CC3)nc12	1	2	2	4407	13	4	28
CC(C)N1CCN(C2CSCCSC2)CC1CCO (stereo not drawn)	-17	10	-12	4702	-7	5	0.6
CCCN1C(=O)C2(C(C(=O)c3ccc(C)o3)=C(O)C(=O)N2CCCOC)c2ccccc21 (stereo not drawn)	-4	7	-3	4019	10	-3	7.8
FC(F)(F)c1ccccc1CN1CCCC(N2CCN(c3ccccc3)CC2)C1 (stereo not drawn)	4	19	-34	3568	5	4	0.7
Cc1ccc(/C=N/NC(=O)c2nnn(-c3nonc3N)c2CSc2ccccc2)cc1	x	x	-32	4298	x	-2	x
COCC(=O)Nc1ccc(C(=O)Nc2ccccc2Cl)cc1	-8	-1	x	x	2	2	0.6
COc1ccccc1NS(=O)(=O)c1cccc2nsnc12	-8	3	-29	4463	8	13	8.1
COc1ccc(S(=O)(=O)NCCSc2ccc(Cl)cc2)cc1OC	3	3	-49	11140	0	12	3.3
C/C(=N\O)c1c(C)c2ccccc2n1C	x	x	-16	9584	x	-1	x
Oc1ccccc1Nc1nc(NCC2CCCO2)c2ccccc2n1 (stereo not drawn)	-1	15	-23	3525	-19	-14	-3.8
COc1cccc(CNC(=O)c2cccnc2Sc2ccccc2)c1	14	12	-5	5781	6	-7	4.2
O=C(/C=C/c1cccc(F)c1)OCC(=O)N1CCCc2ccccc21	1	6	-4	5797	8	-6	3.3
Cc1ccc(OCC(=O)N(C)CC(=O)Nc2cccc(F)c2)cc1	13	5	-8	6008	7	-5	2.4
C/C(=N\NC(=S)NCc1ccccc1)c1ccc(Cl)cc1	x	x	-14	1965	x	-4	x
Cc1cc(C)c(NC(=O)c2oc3ccccc3c2COc2ccccc2)c(C)c1	8	5	-12	2578	5	-2	-11
Cc1ccc(N2/C(=N/c3nc(C)cc(C)n3)NC(=O)CC2C(=O)O)cc1 (stereo not drawn)	17	7	-18	10297	1	4	7.2
O=C(NC1CCCc2c1cnn2-c1ccc(F)cc1F)c1ccccn1 (stereo not drawn)	13	12	-23	2140	-5	6	3.0
CC1(C)CC(=O)C(C(C2=C(O)CC(C)(C)CC2=O)c2ccc(Cl)c([N+](=O)[O-])c2)C(=O)C1 (stereo not drawn)	16	8	-17	3218	7	-7	9.7
CC(Sc1nnc(Nc2ccccc2F)s1)C(=O)NC1CC1 (stereo not drawn)	-5	12	-22	3998	-2	x	2.8
COc1ccc(N(CC(=O)O)S(=O)(=O)c2ccccc2[N+](=O)[O-])c(OC)c1	10	12	-12	4555	3	-2	0.9
CCOC(=O)c1nn(-c2ccccc2C)c(=O)cc1OCC(=O)N1CCN(c2ccccc2)CC1	-8	1	-15	5665	6	-2	3.1
COc1cc(/C=C2\CCC/C(=C\c3ccc(O)c(OC)c3)C2=O)ccc1O	-6	14	4	4126	-13	-5	10

Source: PubChem BioAssay
